Tg IFNy HTS: blocks Toxoplasma gondii growth in the presence of IFN-gamma | AID 1259416 | 3.8% of 69,000 active | activity change, negative = inhibition, %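 (about 20 µM by stock and volumes)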 | Toxoplasma gondii growth in IFN-gamma-treated host cells; stronger effect = lower value; reference of the scale not given here;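 active = below -70%; inconclusive = fit judged invalid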;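 note: host cells are HeLa cells infected with Toxoplasma gondii; parasite growth read as luciferase light; one replicate is shown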
An asterisk follows results filed as active; i = inactive; ? = inconclusive. The list is partial; rates above refer to the full screens.

Preview, 3 compounds:
SMILES	Tg IFNy HTS
Cc1ccc(S(=O)(=O)N2CCCn3nnc(Cn4cccn4)c3C2)cc1	6
O=C(NC(=S)NCCC1=CCCCC1)c1cccnc1	2
O=C(Nc1cccc(C(F)(F)F)c1)c1nc(Nc2ccccc2)c2ccccc2n1	69

This part in full, from the start:
SMILES	Tg IFNy HTS
Cc1ccc(S(=O)(=O)N2CCCn3nnc(Cn4cccn4)c3C2)cc1	6
O=C(NC(=S)NCCC1=CCCCC1)c1cccnc1	2
O=C(Nc1cccc(C(F)(F)F)c1)c1nc(Nc2ccccc2)c2ccccc2n1	69
COc1ccc(C2NC(=O)c3ccccc3N2)cc1OC (stereo not drawn)	50
COc1cncc(C(=O)Nc2ccc(F)cc2F)c1	-41
O=C(CN1CCOCC1)N1CCCCN2[C@H](CO)[C@H](c3ccc(Br)cc3)[C@@H]2C1	-24
CO[C@@H]1CN(C)C(=O)c2ccc(NS(=O)(=O)CC(F)(F)F)cc2OC[C@@H](C)N(Cc2nccs2)C[C@@H]1C	48
O=C(C[C@H]1C[C@@H]2CN(Cc3ccccc3F)C[C@H]2O1)N1CCCCO1	3
CC(C)C(=O)OC[C@H]1O[C@@H](n2ccc(N)nc2=O)[C@](C)(F)[C@@H]1OC(=O)C(C)C	24
Cc1n[nH]c(C)c1S(=O)(=O)N1CCN(CC(=O)N2CCCCC2)CC1	0
CS(=O)(=O)c1ccc(CN2CCCC3(CCNC3)C2)cc1 (stereo not drawn)	2
O=C(Cn1ncc2c(N3CCCCC3)ncnc21)NCc1ccccc1F	-61
Cc1ccccc1-n1nc(C)c(CN(C)Cc2n[nH]c3c2CCCC3)c1C	-78*
O=C(Cn1ncc2c(N3CCN(c4ccccn4)CC3)ncnc21)Nc1cccc(Cl)c1	-50
O=C(NC1CC1)C1CCN(C2CCN(c3ncnc4nc[nH]c34)CC2)CC1	-2
CC(C)CN1C[C@]23CN(C(=O)c4ccn[nH]4)C[C@@H](C[C@H]2S1(=O)=O)O3	-7
CSc1nc(C)cc(-n2ccc(=O)[nH]c2=O)n1	-1
CC(C)N1CCc2ncn(C(C)C)c2C1C(=O)C1CCN(C)C1 (stereo not drawn)	1
Cn1ncc(N2CCC(CNc3ncc(F)c(N4CCOCC4)n3)C2)cc1=O (stereo not drawn)	-7
CC(C(=O)N(C)Cc1cc(C2CC2)n[nH]1)n1cnc2ccccc21 (stereo not drawn)	-1
CCOCC1CN(C(=O)c2ccc[nH]2)Cc2ccnn2C1 (stereo not drawn)	3
COc1ccc(-c2nc(CCNC(=O)c3ccc(C(F)(F)F)cc3)cs2)cc1	i
O=C(Nc1ccc(F)c(Cl)c1)c1c(O)c2cccnc2n(-c2ccc(F)cc2)c1=O	84
N#C[C@@H]1[C@@H](c2ccccc2C2=CCCC2)[C@@H](CO)N1C(=O)NC1CCCCC1	20
Cc1cc(F)ccc1NC(=O)Cn1ncc2c(N3CCOCC3)ncnc21	111
Cc1ccnc(SCC2=NN(c3nc(C)cc(C)n3)C(=O)C2)n1	7
CN(C)C(=O)c1ccc(-c2ccc([C@@H]3[C@@H](CO)N(C(=O)C4CC4)[C@H]3C#N)cc2)cc1	6
CN(C)Cc1ccccc1OCc1cn([C@@H]2CN[C@H](C(=O)O)C2)nn1	13
Cn1cnc2c1C(C(=O)N1CCN(c3ccccc3)CC1)N(S(C)(=O)=O)CC2 (stereo not drawn)	-2
Cn1cc(-c2cnc(-c3cccnc3)nc2)cc1C(=O)NCC(C)(C)CO	400
COc1cc(-c2c(-c3ccccc3)ncn2CCCO)ccc1C	-25
CCc1nccn1CCC(=O)N1CCNCC1C(=O)NCc1ccncc1 (stereo not drawn)	-50
O=C(C[C@@H]1CC[C@H]2[C@@H](COC[C@H](O)CN2CCc2ccccc2)O1)NCCCN1CCOCC1	10
O=C1CCCN1c1ccc(Cl)c(Cl)c1	55
Cc1oc(-c2ccc(C(=O)NCCN3CCOCC3)cc2)nc1CN1CCc2ccccc21	55
CCS(=O)(=O)N1CCC2(CC1)OC(=O)C(C)=C2C(=O)Nc1ccc(C)cc1	39
O=C(Cn1ncc2c(N3CCCC3)ncnc21)Nc1ccccc1F	97
O=c1[nH]c2ccc(Cl)cc2c(-c2ccccc2)c1N1CCCCC1	2
CN1C[C@H](NC(=O)Cn2cnc3ccccc3c2=O)C[C@H]1CO	2
O=C(c1ccco1)N1C[C@H]2CC[C@](O)(c3cccc(C(F)(F)F)c3)[C@H]2C1	28
CC(=O)N1CC[C@@H]2[C@H]1c1cc(-c3ccccc3)ccc1N[C@@H]2CO	41
O=c1[nH]nc(Cc2c[nH]c3ccccc23)n1C1CCCC1	5
COc1cccc(COC2CN(Cc3ccccn3)C(=O)CN(C(=O)c3cncs3)C2)c1 (stereo not drawn)	13
CCN(CC)Cc1ccccc1NC(=O)c1cc(C)nc2c1c(C)nn2C	1
COc1cccc(CN2CCOCC2c2nccc(N3CCCC3)n2)c1 (stereo not drawn)	-6
CC(C)C#Cc1ccc([C@@H]2[C@H](C#N)N(C(=O)c3cccc(F)c3)[C@H]2CO)cc1	-3
O=C(NCC1CCN(Cc2ccc3nonc3c2)C1)C1CCCCC1 (stereo not drawn)	4
COCC1c2nnn(CC3CC3)c2CCN1Cc1cc(C)on1 (stereo not drawn)	-5
Cc1ccc2c(c1)CCCN2CCn1c(=O)[nH]c2ccc(C)cc2c1=O	-82*
OC(CNC1Cc2ccccc2C1)COc1ccc(F)cc1 (stereo not drawn)	-40

Looked up above:
`COc1cccc(COC2CN(Cc3ccccn3)C(=O)CN(C(=O)c3cncs3)C2)c1` (stereo not drawn) in Tg IFNy HTS = 13
`COc1cccc(CN2CCOCC2c2nccc(N3CCCC3)n2)c1` (stereo not drawn) in Tg IFNy HTS = -6
`CC(=O)N1CC[C@@H]2[C@H]1c1cc(-c3ccccc3)ccc1N[C@@H]2CO` in Tg IFNy HTS = 41
`CC(C)C#Cc1ccc([C@@H]2[C@H](C#N)N(C(=O)c3cccc(F)c3)[C@H]2CO)cc1` in Tg IFNy HTS = -3
`O=C(NCC1CCN(Cc2ccc3nonc3c2)C1)C1CCCCC1` (stereo not drawn) in Tg IFNy HTS = 4
`OC(CNC1Cc2ccccc2C1)COc1ccc(F)cc1` (stereo not drawn) in Tg IFNy HTS = -40
`Cc1ccc2c(c1)CCCN2CCn1c(=O)[nH]c2ccc(C)cc2c1=O` in Tg IFNy HTS = -82*

Part of the list above, set out differently:
> O=C(NCC1CCN(Cc2ccc3nonc3c2)C1)C1CCCCC1 (stereo not drawn)
  Tg IFNy HTS: 4
> O=c1[nH]nc(Cc2c[nH]c3ccccc23)n1C1CCCC1
  Tg IFNy HTS: 5
> OC(CNC1Cc2ccccc2C1)COc1ccc(F)cc1 (stereo not drawn)
  Tg IFNy HTS: -40
> Cc1ccc2c(c1)CCCN2CCn1c(=O)[nH]c2ccc(C)cc2c1=O
  Tg IFNy HTS: -82*

(more compounds)
SMILES	Tg IFNy HTS
CC(C(=O)N1CCC(c2noc(-c3cccnc3)n2)CC1)c1ccccc1 (stereo not drawn)	-5
O=S(=O)(NCC(c1cccnc1)c1c[nH]c2ccccc12)c1ccc(Cl)c(Cl)c1 (stereo not drawn)	-8
COc1ccc2c3c(n(C)c2c1)[C@H](CO)N(CC1CC1)CC31CCN(C(=O)NC2CCCC2)CC1	-45
Fc1ccccc1-n1cc(-c2ccnc(N3CC=CC3)n2)cn1	-34
Cc1nccn1CCNC(=O)C1CCN(Cc2ccccc2Cl)CC1	17
Cc1ccc2c(c1)C(C)(C)C1(CCCC(=O)N1)N2C (stereo not drawn)	77
COc1ccccc1N(Cc1nc(-c2ccc(C)cc2)oc1C)S(=O)(=O)c1ccccc1C	-34
CC(C)NC(=O)[C@@H]1C[C@H](N)CN1C(=O)CN(C)Cc1ccccc1F	?
C=CCNC(=O)c1ccc(-c2cccc([N+](=O)[O-])c2)o1	67
CN1C(=O)c2cc(NC(=O)Cc3cccs3)ccc2OC[C@@H]2O[C@@H](CC(=O)NCCCN3CCOCC3)CC[C@@H]21	12
CC(C)c1ccc(-c2nc3c([nH]2)c(=O)n(C)c(=O)n3C)cc1	10
Cc1ccc(N2CC3(CCN(Cc4cncn4C)C3)CC2=O)cc1 (stereo not drawn)	-8
CC(C)CCCC1CN(Cc2ccncc2)CCO1 (stereo not drawn)	-24
OCC1(CCOc2ccccc2)CCCN(c2ncnc3c2CCC3)C1 (stereo not drawn)	-59
CNC(=O)c1ccc(-c2nc(CN3CCN(S(=O)(=O)c4ccc(C)c(C)c4)CC3)c(C)o2)cc1	28
CCOCC12CCCOC1CCN(C(=O)CS(C)(=O)=O)C2 (stereo not drawn)	6
CCC(CO)N(Cc1ccsc1)C(=O)c1ccccc1N1CCOCC1 (stereo not drawn)	82
O=S(=O)(c1ccccc1F)N1CCC2(CC1)Nc1cc(F)ccc1-n1cccc12	-4
Cn1ccnc1-c1ccc(NCC(c2ccccn2)N2CCOCC2)nn1 (stereo not drawn)	20
Cc1nonc1OCCNC(=O)c1ccc(C(C)N2CCCCC2)o1 (stereo not drawn)	79
CN(C)CCN1CCC2(CCCN(C(=O)c3ccoc3)C2)CC1	-16
CCC(=O)Nc1ccc2c(c1)C(=O)N(C)C[C@H](OC)[C@@H](C)CN(C(=O)Cc1cccnc1)[C@@H](C)CO2	85
Cc1c(CN2CCN(Cc3cccc(F)c3)CC2)[nH]c2ccc(F)cc12	-52
CCOCC1CCC2(CCN(C(=O)c3ccnnc3)CC2)N1CC1CC1 (stereo not drawn)	-20
O=C(Cn1ccnc1)NC(Cc1cccs1)c1nccs1 (stereo not drawn)	37
O=C(CSc1n[nH]c(-c2ccccn2)n1)NC1CC2CCC1C2 (stereo not drawn)	-42
Cc1nc(C(C)C)sc1C(=O)NCCS(=O)(=O)N(C)C	2
O=C(Nc1ccccc1)N1CCC(N2CCN(Cc3ccccc3)C2=O)CC1	10
CO[C@@H]1CN(C)C(=O)c2ccc(NC(=O)c3cc(C)on3)cc2OC[C@@H](C)NC[C@H]1C	-41
CCOc1ccc(-c2nc(Cn3ccn4nc(-c5cccs5)cc4c3=O)c(C)o2)cc1OC	-44
O=C(O)COc1ccc(OCCNC[C@@H](O)COc2ccccc2)cc1	5
CCC(CC)C(=O)N1CCCC1c1c(-c2ccnc(N3CCCC3)n2)cnn1C (stereo not drawn)	5
COC(=O)c1ccc(-c2ncc(-c3cccc4ccccc34)o2)cc1	7
FC(F)(F)c1cccc(-c2nnc(C3c4ccccc4Oc4ccccc43)o2)c1	-99*
COCC(=O)N1[C@H](C#N)[C@H](c2ccc(C#Cc3ccccc3F)cc2)[C@@H]1CO	-45
CC(c1n[nH]c(=O)n1Cc1cccs1)n1cccn1 (stereo not drawn)	4
CN(C)CCN1CCOCC2(C1)CN(Cc1nccs1)CCO2 (stereo not drawn)	-54
O=C(c1csnn1)N1CCC2(c3ccccc3)CN(CCO)CC2C1 (stereo not drawn)	0
CO[C@H]1CC[C@H]2CCOc3ccc(C#N)cc3C(=O)N(C)C[C@@H](c3ccccc3)CC(=O)N(C)C[C@@H]1O2	10
COc1cccc(-c2ccc([C@H]3[C@@H](CO)N4C(=O)CN(C(=O)c5cccnc5)C[C@@H]34)cc2)c1	-16
CCN(CC)c1ncccc1CNC(=O)c1cc(=O)[nH]c2ccccc12	1
CC(C)NC(=O)N(C)C[C@H]1Oc2ccc(NC(=O)Cc3ccccc3)cc2CC(=O)N([C@@H](C)CO)C[C@@H]1C	-27
COc1ncccc1-c1cc(C)ccc1N1CCOC1=O	6
COC(=O)c1c(NCCCN2CCCC2)c2cccc(Cl)c2[nH]c1=O	7
CC(C)C#Cc1ccc([C@@H]2[C@H](CO)N3C(=O)CN(C(=O)NC4CCCC4)C[C@@H]23)cc1	-27
CC(C)NC(=O)Nc1cccc2c1O[C@H](CN(C)C(=O)Nc1ccccc1)[C@H](C)CN([C@@H](C)CO)C2=O	29
CCOCC1CN(Cc2cc(C)on2)Cc2cn(CC)nc21 (stereo not drawn)	-18
COc1ccc(NC(=O)CSc2nc(C)nc3sc(C)c(C)c23)cc1	-12
CC(C)CN1C(=O)CCc2cc(NS(=O)(=O)c3cccs3)ccc21	-44
CC(C)N1CCC2(CC1)CN(S(=O)(=O)c1cccc(F)c1)Cc1ccccc12	-15
Other compounds:
SMILES	Tg IFNy HTS
c1ccc(N2CCN(CCCOc3ccc4c(c3)OCO4)CC2)cc1	21
Cc1noc(C)c1C(=O)N1CC[C@@H]2C[C@H](c3nccs3)O[C@H]2C1	8
O=C(Nc1cc(C(F)(F)F)cc(C(F)(F)F)c1)NC1CCc2ccccc2O1 (stereo not drawn)	-82*
C[C@@H]1C[C@H]2CCN(C(=O)c3cnccn3)C[C@@H]2O1	-7
C[C@@H]1C(=O)N[C@@H](c2ccccc2)CC=CC[C@H](C)Oc2ccccc2C(=O)N1C (mixture of isomers)	-9
Cc1cccc(SC2CCN(Cc3c(CO)cnc(C)c3O)CC2)c1	-5
CC(C)(C)n1nnnc1CN1CCC(NC(=O)c2ccccc2)CC1	-31
O=C(Cn1c(=O)cc(C(=O)N2CCCCC2)c2ccccc21)Nc1ccc(Br)cc1F	-39
CCCSc1nnc(NC(=O)CSc2nnnn2-c2cccc(OC)c2)s1	7
Cc1cc(C(=O)N2C[C@H]3C[C@H](O)[C@@H](O)C[C@H]3C2)n[nH]1	5
CN1C(=O)c2cc(NC(=O)Nc3ccccc3Cl)ccc2OC[C@@H]2O[C@H](CC(=O)O)CC[C@H]21	7
Cc1nc(-c2ccccc2)ncc1C(=O)N(C)CC1(CO)CCC1	-43
COc1ccc(-c2nnc3n2C2CCCCC2N(C(=O)CCc2ccno2)C3)cc1OC (stereo not drawn)	-30
CCOc1ccccc1-c1nc(Cn2ccn3nc(-c4ccc(C)cc4)cc3c2=O)c(C)o1	29
Cn1ncc(Br)c1N1C(=O)CCC1=O	33
COc1cc(N2CC[C@]3(CCC[C@H](CN(C)C)O3)C2)ncn1	22
Cc1ccnc(C(=O)N2CCC3(CC2)CC(COCC2CC2)N(C)C3)c1 (stereo not drawn)	-2
CSc1nc(N)nc(-c2cccnc2)n1	5
